VACV mCherry inh: qHTS for Stage-Specific Inhibitors of Vaccinia Orthopoxvirus: mCherry Reporter Primary qHTS. Vaccinia virus mCherry reporter infection, fluorescence; about a quarter of the inactives have no number. Potency, µM (titrated, usually from 36.5 µM), inactives show top-dose activity change, negative = inhibition, usual class: inhibitors. actives 0.63% (n = 310,000); active = well fitted inhibition curve with a large enough effect; inconclusive = small, poorly fitted or top-dose-only effect; inactive = no such curve, though single readings can be large or run the other way; tested in A549 cells; further: nearly all actives have a fitted effect of over 35% in size; inactives centre near -10
Vaccinia Venus: qHTS for Stage-Specific Inhibitors of Vaccinia Orthopoxvirus: Venus Reporter Primary qHTS; Vaccinia virus Venus reporter expression, fluorescence; Potency, µM (top dose mostly 36.5 µM), without a hit: top-dose activity change, negative = inhibition, actives largely listed as inhibitors; actives 0.46% (n = 330,000); AID 720580, 2013; active means well fitted inhibition curve with a large enough effect; inconclusive means small, poorly fitted or top-dose-only effect; inactive means no such curve, though single readings can be large or run the other way; tested in A549 cells; further: nearly all actives have a fitted effect of over 30% in size; inactives centre near -10
Numbers without * were called inactive; i = inactive; ? = inconclusive; · = not tested or not shown; & = joins results of further samples; [ ] = remark or other dose. On the % scale 0 is the no-effect control and ±100 the full control effect; potency means the concentration at half of the fitted maximal effect.

Structure	VACV mCherry inh	Vaccinia Venus
COc1ccccc1-n1c(-c2cc(-c3ccc(F)cc3)n[nH]2)n[nH]c1=S	-19%	-9%
CC(C)(C)NC(=O)COc1ccc(CNc2ncn[nH]2)cc1	1%	0%
CCC(C)(C)NC(=O)Cn1c(-c2ccccc2)cc(C(C)=O)c1C	9%	-6%
CN=c1nc(-c2ccccc2)n(-c2ccccc2)s1	-15%&-9%	-25%&11%
N#Cc1c(NC(=O)c2ccc(Cn3cc(Br)cn3)o2)sc2c1CCCCC2	-13%	?
COc1cc(Nc2cc(C)nc3ncnn23)cc(OC)c1OC	-6%	-5%
CN(C)CCN(C(=O)c1ccc2c(c1)OCCO2)c1nc2ccc(Cl)cc2s1	-11%	-9%
CN1CCN(S(=O)(=O)c2cccc(C(=O)Oc3cccc(C#N)c3)c2)CC1	i	-11%

Single entries from the entries so far.
Under Vaccinia Venus, COc1ccccc1-n1c(-c2cc(-c3ccc(F)cc3)n[nH]2)n[nH]c1=S is entered as -9%
Under Vaccinia Venus, CN1CCN(S(=O)(=O)c2cccc(C(=O)Oc3cccc(C#N)c3)c2)CC1 is entered as -11%
Under VACV mCherry inh, N#Cc1c(NC(=O)c2ccc(Cn3cc(Br)cn3)o2)sc2c1CCCCC2 is entered as -13%
Under Vaccinia Venus, COc1cc(Nc2cc(C)nc3ncnn23)cc(OC)c1OC is entered as -5%

(more compounds)
Structure	VACV mCherry inh	Vaccinia Venus
Cc1cc(-n2c(C)cc(C(=O)CSc3nc(N)cc(=O)[nH]3)c2C)no1	-2%[7.34 µM]	0%[7.34 µM]
[O-]/[N+](=C\c1ccncc1)c1ccc(Br)cc1	-19%	-13%
COC1=NS(=O)(=O)c2ccccc21	-8%	-3%
Cc1cc(C)n2nc(C(=O)N(C)C(c3ccccc3)c3ccccc3)nc2n1	2%	-9%
COC(=O)/C(=C/c1ccc(F)cc1)NC(C)=O	-13%	-7%
O=C(CNC(=O)c1cc2c(n(-c3ccccc3)c1=O)CCCC2=O)c1ccccc1	i	-12%
COc1ccc(/C=C/C(=O)Nc2nc(N)n(-c3ccccc3)n2)cc1	i	-8%
COc1cccc(CNS(=O)(=O)c2c(C(=O)N3CCCCCC3)c(C)n(C)c2C)c1	-7%	-10%

Next results
Structure	VACV mCherry inh	Vaccinia Venus
S=C(Nc1cc(Cl)ccc1Oc1ccccc1)N1CCN(c2ccccn2)CC1	i	-27%
COC(=O)CCc1c[nH]c2ccc([N+](=O)[O-])cc12	-5%	-5%
COc1ccc(NC2=CC(c3ccc(OC)c(OC)c3)N(c3ccc(OC)cc3)C2=O)cc1 (centres undefined)	-8%	-18%
Cc1cc(C)c(CN2CCN(C(=O)CC[C@H]3O[C@@H](n4ccc(=O)[nH]c4=O)[C@H](O)[C@@H]3O)CC2)c(C)c1	-12%	-9%
Nn1c(SCC(=O)Nc2ccc3c(c2)OCCO3)nnc1C(F)(F)F	·	-1%
COC(=O)C1=C(c2ccc(OC)c(OC)c2)C[C@@H]2CC[C@H]1N2C(=O)N1CCCC1	-24%	-11%
Cc1c(Cl)cccc1NC(=O)CN1C(=O)CSc2ccc(S(=O)(=O)N3CCCC3)cc21	-8%	-6%
Cc1cc(=O)n2[nH]c(=O)c(N=Nc3ccccc3)c2[nH]1	-10%[1.46 µM]	-6%

(continued)
Structure	VACV mCherry inh	Vaccinia Venus
COc1cccc(C(=O)Nc2nnc(-c3ccc(Cl)cc3)o2)c1	?	-13%
O=C1/C(=C/c2ccccn2)SC(=S)N1N1CCOCC1	i	-10%
O=C(O)CC1(CC(=O)O)Nc2ccccc2SC1=O	-14%	4%
O=C(C[C@H]1C/C=C\C[C@H](NC(=O)OCC2c3ccccc3-c3ccccc32)C(=O)OC[C@@H]2CCCN2C1=O)NCCO	i	-15%
Cc1ccc2occ(CC(=O)Nc3ccc(Cl)c(C(F)(F)F)c3)c2c1	?	?
c1ccc(COc2ccc(OCCN3CCCC3)cc2)cc1	-8%	-1%
CC(C)NC(=O)NC(=O)COC(=O)/C=C/c1ccc2c(c1)OCO2	?	11%
COC(CNC(=O)C(=O)NCC1OCCN1S(=O)(=O)c1ccccc1)OC (centres undefined)	-14%	-9%

(continued)
Structure	VACV mCherry inh	Vaccinia Venus
Cc1cc([N+](=O)[O-])ccc1NC(=O)CSc1nnc(C)n1C	i	-13%
Cc1ccc(N(CC(=O)NCC2CCCO2)C(=O)CCC(=O)Nc2ccccn2)cc1 (centres undefined)	i	-6%
CN(CC(=O)N1CCN(c2ccccn2)CC1)S(=O)(=O)c1cccc2nsnc12	-9%	-4%
C[C@]12CCC3C(CC[C@H]4CC(=O)CC[C@]34C)C1CCC2=O (some centres undefined)	-8%	8%
CC(C)N(C(=O)CSc1nnc(Cn2nnc3ccccc32)n1C)C(C)C	·	-8%
COc1ccc(Cl)cc1NC(=O)c1noc2c1CCc1ccccc1-2	-15%	-12%
Cc1cc(C)c(S(=O)(=O)NCCCn2ccnc2)c(C)c1	-20%	-14%
COc1ccccc1N1CCN(C(=O)c2cc(C)on2)CC1	-12%	-12%

New compounds follow.
Structure	VACV mCherry inh	Vaccinia Venus
CCCCC(=O)Nc1ccccc1C#N	i	-7%
COc1ccc(C(=O)N(c2ccccn2)C2CCCCC2)c(OC)c1	-4%	-22%
CC12Nc3ccccc3C(=O)N1Cc1cnnn1-c1ccccc12 (centres undefined)	-3%	6%
Cc1ccc(S(=O)(=O)N2CCOCC2)c(C)c1NS(C)(=O)=O	-5%	-5%
CCN(C)C1CN(Cc2cn(Cc3ccc(Cl)cc3)nn2)S(=O)(=O)C1 (centres undefined)	0%	11%
C#CCOCCOCCOCCNc1nc(N2CCN(C(=O)[C@H](CCCCN)n3cc([C@@H](N)[C@H](C)CC)nn3)CC2)nc(N2CCN(C(=O)[C@H](CCC(=O)O)n3cc([C@@H](N)CCSC)nn3)CC2)n1	-12%	6%
O=C(OCc1ccccc1F)c1cc2ccccc2cc1O	0%	-9%
O=C(NCc1n[nH]c(=S)n1-c1cccc(C(F)(F)F)c1)c1ccco1	-24%	-4%

Next structures.
Structure	VACV mCherry inh	Vaccinia Venus
O=C(N/N=C/C=C\c1ccco1)c1cccs1	-11%	-6%
CN(c1ccccc1C(=O)N1CCN(c2ccccc2)CC1)S(C)(=O)=O	-13%	-6%
C=CCc1cccc2cc(C(=O)Nc3ccccc3C(=O)O)c(=O)oc12	-21%	-25%
COc1ccccc1-c1coc2cc(OC(=O)/C=C/c3ccccc3)ccc2c1=O	i	-6%
Cc1ccc(OCC(=O)N(Cc2ccco2)Cc2ccc(C)o2)cc1	0%	-10%
Cc1ccc(-n2nc3c(=O)n(CCCC(=O)NCCc4ccccc4Cl)nc(C)c3c2C)cc1	-10%	-27%
CCc1ccc(OCC2c3cc(OC)c(OC)cc3CCN2C(=O)COc2ccccc2)cc1 (centres undefined)	-14%	-16%
COc1ccccc1Nc1cc(C)nc(Nc2ccccc2OC)n1	-15%	-23%

Continuation.
Structure	VACV mCherry inh	Vaccinia Venus
COc1ccc(CCNC(=O)CNS(=O)(=O)c2cccs2)cc1OC	i	-6%
Cc1cc(Cl)ccc1OCC(=O)NCCC(=O)O	-13%	-17%
COc1ccc([C@@H]2CC=C(C(=O)O)[C@H](c3ccc(Br)cc3)N2S(=O)(=O)c2ccc(C)cc2)cc1OC	?	-4%
Cc1ccc(N2C(=O)[C@@H]3C(C(=O)CCN4C(=O)c5ccccc5C4=O)=NN[C@@H]3C2=O)cc1	i	1%
CCN(CC)S(=O)(=O)c1cccc(NC(=O)COC(=O)c2[nH]c(C)c(C(C)=O)c2C)c1	-28%	?
COc1ccc(CN2C[C@H](Cc3ccccc3)[C@@H](CC(=O)Nc3ccccc3)C2=O)cc1	i	?
CC(NC(=O)c1ccc2c(c1)CCN2S(C)(=O)=O)c1ccccc1 (centres undefined)	-9%	4%
Cc1cccc(NC(=O)CSc2nc(N)c(NC(=O)c3ccccc3F)c(=O)[nH]2)c1	-12%	-13%

(more compounds)
Second line of a record – VACV mCherry inh, Vaccinia Venus
- Cc1ccc2nc(NC(=O)c3ccc(N4C(=O)CCC4=O)cc3)sc2c1
    i, -8%
- Cc1ccc(/C=C2\Oc3cc(OCC(=O)NN)ccc3C2=O)o1
    -2%, -11%
- Fc1ccccc1Cn1nnc2c(-n3ccnc3)ncnc21
    -6%, -5%
- CN1CCN(C(c2ccc(Cl)cc2)c2cc(Cl)c3cccnc3c2O)CC1 (centres undefined)
    -27%, -25%
- COc1cccc(CNC(=O)c2ccc(CNS(=O)(=O)c3ccc(C)cc3)cc2)c1
    -10%, 0%
- COc1cc(C(=O)Nc2ccccn2)cc(OC)c1OC
    i, -8%
- CC(C)NC(=O)C1(C)CN(S(C)(=O)=O)CC(=O)N1CCc1ccc(O)cc1 (centres undefined)
    -5%, -6%
- O=C(NCc1n[nH]c(=S)n1-c1ccc(F)cc1)c1ccc(S(=O)(=O)N2CCCCC2)cc1
    -9%, -12%
- CN(C)CCC(Oc1ccccc1OCc1ccccc1)c1ccccc1 (centres undefined)
    i, -23%
- O=C(Nc1ccc2oc(-c3cccnc3)nc2c1)c1ccc([N+](=O)[O-])o1
    -12%, -6%
- CC12CCC(=O)N1C(C(=O)Nc1nnc(SCc3ccccc3F)s1)CS2 (centres undefined)
    i, -12%
- CCOC(=O)Cc1csc(NC(=O)CCc2ccc(S(=O)(=O)N3CCOCC3)cc2)n1
    i, -16%
- O=C1c2[nH]c3ccccc3c2CC1N1C(=O)c2ccccc2C1=O (centres undefined)
    ?, ?
- Cc1ccc(NC(=O)CS(=O)(=O)c2cn(C)c3ccccc23)c(C)c1
    ?, -22%
- COc1ccc(-c2sc3cc(OC)c(OC)cc3c2-c2ccc(O)cc2)cc1
    ?, ?
- COc1ccc(CNC(=O)CSc2nnc3c(Cl)cc(C(F)(F)F)cn23)cc1OC
    -11%, -3%
- Cc1ccc(S(=O)(=O)N/N=C/c2cccc([N+](=O)[O-])c2)cc1
    0%, -17%
- O=C(Nc1ccc2c(c1)OCCO2)N1CCOCC1
    i, -11%
- CN(c1ccc(OC(=O)CN2C(=O)NC3(CCCC3)C2=O)cc1)S(=O)(=O)c1ccccc1
    -15%, -14%
- O=C(CN1CCCCC1)NNc1nc(-c2ccccc2)c2cc(Br)ccc2n1
    -3%, -15%
- Cc1ccc(/C=N\NC(=O)c2ccc(Cn3cc(Br)c([N+](=O)[O-])n3)o2)o1
    -1%, -2%
- Cc1cc(NCC2CCCCC2)nc2ccccc12
    ?, -19%
- COCCOC(=O)C1=C(C)N=C2SCCC(=O)N2C1c1cccs1 (centres undefined)
    2%, -6%
- Cc1nc(-c2ccc(S(=O)(=O)Nc3ccccc3C)cc2)co1
    -16%, ?
- COc1ccc2c(ccc[n+]2[O-])c1
    -6%, -3%
- Cc1ccccc1C(=O)N1CCN(c2ccc(NC(=O)c3cccc(OC(C)C)c3)cc2)CC1
    -17%, -6%
- COc1ccc(NC(C)(C)c2nnnn2-c2c(C)cccc2C)cc1
    ?, -9%[7.34 µM]
- CS(=O)(=O)c1ccc(C2=C(CNC(=O)c3ccncc3)[C@H]3CC[C@@H](C2)N3Cc2ccccc2)cc1
    i, -11%
- O=C(Nc1cc(-c2ccc(Cl)cc2)no1)c1ccc(F)cc1
    -18%, -5%
- Cc1noc(C)c1C(=O)Nc1nc(-c2ccc(F)c(F)c2)cs1
    -15%, -7%

Compound profiles (already shown).
`CCOC(=O)Cc1csc(NC(=O)CCc2ccc(S(=O)(=O)N3CCOCC3)cc2)n1` is listed as VACV mCherry inh = i; Vaccinia Venus = -16%
`CC(C)NC(=O)C1(C)CN(S(C)(=O)=O)CC(=O)N1CCc1ccc(O)cc1` (centres undefined) is listed as VACV mCherry inh = -5%; Vaccinia Venus = -6%

Further results
Second line of a record – VACV mCherry inh, Vaccinia Venus
- CCOCCCNC(=O)C(c1ccc(OC)cc1)N(Cc1ccc2c(c1)OCO2)C(=O)c1cnccn1 (centres undefined)
    -3%, -6%
- COc1ccc(C2=CC(=O)CC(c3ccc(F)cc3)C2)cn1 (centres undefined)
    -4%, -7%
- O=C(/C=C/c1ccccc1)NCCS(=O)(=O)N1CCN(c2ccc(F)cc2)CC1
    i, -23%
- COc1cc(C(=O)Nc2ccccc2OCc2cc(=O)n3cc(C)sc3n2)cc(OC)c1OC
    -5%, -4%
- CCCCOc1ccc(/C(O)=C2/C(=O)C(=O)N(CCCOC)C2c2ccncc2)cc1C (centres undefined)
    -20%, -17%
- CCOC(=O)CSc1nc(C)c2cc(OC)ccc2n1
    -15%, -14%
- Cc1ccnc(SCC(=O)Nc2sc3c(c2C#N)CCCC3)n1
    ·, ?
- CC[C@]12c3[nH]c4ccc(OC)cc4c3CCN1C(=O)C(CC(=O)NCCN1CCOCC1)C[C@@H]2C(=O)N1CCN(C(=O)C2CC2)CC1 (some centres undefined)
    -9%, -6%
- Cc1ccc(C(=O)O/N=C/C2=C(Cl)c3ccccc3CC2)cc1
    ·, 7%
- CCCCn1c(SCC(N)=O)nnc1-c1ccco1
    -1%, -6%
- Cc1noc(C)c1NC(=O)Nc1cccc2c1O[C@H](CN(C)S(=O)(=O)c1ccc(F)cc1)[C@@H](C)CN([C@H](C)CO)C2=O
    i, -5%
- Cc1cccc(NC(=O)Cn2cnc3c(oc4ccccc43)c2=O)c1
    i, -2%
- NC(=O)[C@@H]1CC2(CC(c3cccc(NC(=O)COc4ccc(Cl)cc4)c3)=NO2)CN1C(=O)COc1ccc(Cl)cc1 (some centres undefined)
    ?, ?
- Cc1ccc(-n2cc3c(c2-c2ccccc2Br)c(=O)n(C)c(=O)n3C)cc1N
    -15%, -15%
